CtBP-E1A blk: qHTS Assay for Inhibitors of the CtBP/E1A Interaction; CtBP / adenovirus E1A interaction (AlphaScreen); AlphaScreen GST-E1A/His-CtBP binding, 1536-well; active compounds read low; control for the full effect not named in the record; activity change, % (test concentration not listed); 340,000 compounds, 0.49% hits; AID 651724, 2012; in the data active means activity change below about -65%; inconclusive means about -30% to -65%; inactive means above about -30%; note: % is set by controls: 0 for no effect and ±100 for the full control effect
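GST-E1A and His-tagged CtBP (125 nM each as 5X stock) were preincubated with pin-transferred compound for 2 h at 37 °C in the dark, then glutathione donor and nickel acceptor beads were added for 1 h before AlphaScreen reading.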
gsp antagonist: qHTS for Antagonists of gsp, the Etiologic Mutation Responsible for Fibrous Dysplasia/McCune-Albright Syndrome: qHTS; 340,000 compounds, 0.4% hits; gsp-mutant cells, cAMP HTRF, 30 min; control for the full effect not named in the record; AID 624288, 2012; Potency, µM (titrated, usually from 76.9 µM), inactives show at the top dose activity change, negative = inhibition, actives largely listed as inhibitors; active = falling curve of any shape with a large fitted effect; inconclusive = falling curve, mostly with a smaller effect; inactive = flat or rising curve; cell line not stated here;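 note: intracellular cAMP measured with PDE inhibitor Ro 20-1724 present during compound exposure; potency is the fitted concentration of half-maximal effect; % is set by controls: 0 for no effect and ±100 for the full control effect; nearly all actives have a fitted effect of over 65% in size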
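Measurement of cellular cAMP by homogeneous time-resolved fluorescence following a 30 min compound exposure at 37C. The PDE inhibitor […] was present throughout; the assay buffer was DPBS with 0.05% BSA and 0.005% Tween 20.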
Six1-Eya2 blk: qHTS Assay for Inhibitors of the Six1/Eya2 Interaction. AlphaScreen GST-Six1/His-Eya2 binding, biochemical; active compounds read low; control for the full effect not named in the record. activity change, % (no concentration beside the values). 360,000 compounds, 0.56% hits. AID 651725, 2012; in the data active = activity change below about -65%; inconclusive = about -30% to -65%; inactive = above about -30%; note: % is set by controls: 0 for no effect and ±100 for the full control effect
Target sequence (O00167 whole entry, looked up): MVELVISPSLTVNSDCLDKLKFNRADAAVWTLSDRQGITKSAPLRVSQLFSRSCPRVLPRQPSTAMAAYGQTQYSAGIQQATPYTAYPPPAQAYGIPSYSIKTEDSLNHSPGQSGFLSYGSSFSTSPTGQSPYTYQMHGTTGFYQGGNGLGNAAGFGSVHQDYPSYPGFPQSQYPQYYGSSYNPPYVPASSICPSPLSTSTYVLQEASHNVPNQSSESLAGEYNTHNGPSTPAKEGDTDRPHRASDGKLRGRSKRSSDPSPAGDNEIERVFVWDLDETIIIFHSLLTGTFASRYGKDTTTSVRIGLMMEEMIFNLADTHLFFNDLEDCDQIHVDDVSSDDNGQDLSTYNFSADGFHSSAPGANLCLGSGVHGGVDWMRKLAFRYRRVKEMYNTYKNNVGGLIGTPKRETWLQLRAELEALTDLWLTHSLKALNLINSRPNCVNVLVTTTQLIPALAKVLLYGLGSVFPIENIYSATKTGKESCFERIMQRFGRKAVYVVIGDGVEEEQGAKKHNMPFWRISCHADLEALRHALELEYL
Target sequence (Q15475 whole entry, looked up): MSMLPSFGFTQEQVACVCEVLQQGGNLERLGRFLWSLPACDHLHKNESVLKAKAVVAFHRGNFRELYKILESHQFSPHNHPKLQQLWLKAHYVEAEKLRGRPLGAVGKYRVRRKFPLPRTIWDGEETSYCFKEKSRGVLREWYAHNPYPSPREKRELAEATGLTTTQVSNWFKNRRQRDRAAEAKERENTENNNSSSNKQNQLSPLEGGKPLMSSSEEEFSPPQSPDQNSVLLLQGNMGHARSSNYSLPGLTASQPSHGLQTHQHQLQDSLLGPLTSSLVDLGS
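Homogeneous AlphaScreen proximity assay pairing GST-Six1 with His-tagged Eya2 (added as 5X mix: 250 nM and 500 nM) in 50 mM Tris pH 8.0, 300 mM NaCl, 1 mM TCEP. Glutathione donor and nickel acceptor beads; 1 h, 37 °C, dark.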
D2 agonist: Beta-Arrestin HTS for Positive Allosteric Modulators of the Human D2 Dopamine Receptor: Agonists; 360,000 compounds, 0.084% hits; D(2) dopamine receptor (Homo sapiens), P14416; DiscoveRx PathHunter D2 beta-arrestin, luminescence, 90 min; 100% = 57 uM dopamine signal; AID 624465, 2012; activation, % (no concentration beside the values); in the data active = activation above about 40%; inconclusive = about 15% to 40%; inactive = below about 15%; note: compound concentration not given in the record; the text of the record calls up to 30% inactive
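DiscoveRx PathHunter D2 beta-arrestin cells (2,100/well) attached overnight, then compound-stimulated 90 min at 37 C in HBSS/10 mM HEPES/0.1% Tween-20 buffer; beta-galactosidase complementation read by luminescence after 1 h at ambient temperature. Dopamine 57 uM final (EC100) as control.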
gsp agonist: qHTS for Agonist of gsp, the Etiologic Mutation Responsible for Fibrous Dysplasia/McCune-Albright Syndrome: qHTS; gsp mutant cells, cAMP HTRF, 30 min; control for the full effect not named in the record; Potency, µM (doses to about 76.9 µM), for inactives: top-dose activation (cAMP increase), actives largely listed as activators; 340,000 compounds, 0.13% hits; active = well fitted activation curve with a large enough effect; inconclusive = small, poorly fitted or top-dose-only effect, or another doubt; inactive = no such curve, though single readings can be large or run the other way; cell line not stated here;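 note: phosphodiesterase inhibitor Ro 20-1724 added with compounds to block cAMP breakdown; potency is the fitted concentration of half-maximal effect; nearly all actives have a fitted effect of over 60% in size; about a fifth of the inactives were tested at one dose only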
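Cells in DMEM/10% FBS with G418 were pretreated with compounds in DMSO plus […] (300 uM stock) for 30 min at 37C. cAMP was measured by HTRF (cAMP-d2 plus anti-cAMP antibody-K) after 30 min at room temperature.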
D2 PAM: Beta-Arrestin HTS for Positive Allosteric Modulators of the Human D2 Dopamine Receptor: Potentiators | D(2) dopamine receptor (Homo sapiens), P14416 | DiscoveRx D2 beta-arrestin cells, luminescence, 90 min; 100% = 57 uM dopamine signal | potentiation, % (test concentration not listed) | 360,000 compounds, 0.23% hits | AID 624464, 2012; active = potentiation of 50% or more; inconclusive = 30% to 50%; inactive = 30% or less;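 note: compound concentration not given in the record; tested on top of an EC20 dose of dopamine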
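PathHunter D2 cells, attached overnight at 37 deg C, received compound in DMSO plus dopamine at EC20 (50 nM final) for 90 min at 37 deg C. Beta-arrestin recruitment was read as luminescence after 1 h with detection reagent at ambient temperature.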
The depositor's hits bear a star; ? = inconclusive; / = not tested or not shown; & = joins results of further samples; [ ] = dose if it differs, or a comment.

SMILES	CtBP-E1A blk	gsp antagonist	Six1-Eya2 blk	D2 agonist	gsp agonist	D2 PAM
COc1cc(C(=O)NCC2(c3ccccc3)CCCC2)ccc1OC(C)C	8	-22%	1	2.6	19%	1
COc1ccc(C)cc1N(C(=O)COc1ccccc1)c1nc2ccccc2s1	0	-7%	-6	-7.6	-38%[inhibitor]	-8
COc1ccccc1NC(=O)Nc1nnc(C(C)C)s1	2	16%	1	-0.6	-1%	1
Nc1ccc(CCNc2ncnc3c2ncn3[C@@H]2O[C@H](CO)[C@@H](O)[C@H]2O)cc1	-21	1%	5	-4.7	/	-8
COc1ccc(-c2cc(-c3ccccc3)nc3ncnn23)cc1	5	-14%	2	2.2	5%	0
O=C(C1CCCCC1)N1CCN(S(=O)(=O)c2cccc([N+](=O)[O-])c2)CC1	-2	-2%	1	2.1	32%	-1
CCOC(=O)C1CCCN(Cc2ccc(OC)cc2OC)C1 (configuration not stated)	-5	2%	11	-0.9	14%	-44
CCCCC(C(=O)OCC)C(N)Cc1ccc(F)cc1 (configuration not stated)	/	-8%	16	-4.3	-24%	-11
CC1(C)Nc2ccccc2N(CCC(=O)N2CCOCC2)C1=O	8	-15%[15.4 µM]	6	1.7	-1%	-11
O=C(N/N=C/c1ccc(OC(=O)c2ccco2)cc1)c1ccncc1	1	8%	-4	1.5	-33%[inhibitor]	-3
COc1ccc(/C(=N/Nc2ncnc3ccccc23)C(=O)O)cc1	-69*	-7%	-77*	-4.4	-2%[15.4 µM]	-10
CC(C)CCN(C(=O)c1ccc(N2CCCC2=O)cc1)c1c(N)n(Cc2ccccc2)c(=O)[nH]c1=O	9	0%	1	-5.2	-22%	-7
Cc1ccc(C(=O)Nc2ccc(Nc3ccccc3)cc2)cc1C	-8	-18%	-25	4.8	-10%	-5
CCCOc1ccc(C(=O)CCCC(=O)c2ccc(OCCC)cc2)cc1	10	2%	6	4.1	-8%	-2
Cn1ncc2c(N3CCCCC3)nc(NCCCO)nc21	/	2%	-3	3.5	-49%[inhibitor]	-4
Cn1nc(C(=O)Nc2sc3c(c2C#N)CCCC3)ccc1=O	-1	/	-5	2.4	-18%[15.4 µM]	4
CC(C)(C)c1cc(-c2n[nH]c(=S)n2-c2ccc(Cl)cc2)n[nH]1	0	-8%	-9	-1.8	4%[15.4 µM]	-20
CCN(CC(=O)NCc1cccs1)CC(=O)Nc1cccc(S(N)(=O)=O)c1	0	0%	3	-2.2	-3%	0
C/C=C(\C)CN1CCCC(N(C)CCc2ccc(OC)c(OC)c2)C1 (configuration not stated)	9	9%	-5	-0.8	-9%	-1
COc1ccccc1NC(=O)Nc1cc(NC(=O)Nc2ccccc2OC)c(C)nc1C	0	10%	3	-0.5	-17%	-37
CCOC(=O)c1c(NC(=O)/C=C/c2ccc(C)o2)sc(C)c1C	13	6%	15	-0.1	-28%	-5
O=C(CN1CCN(C(=O)c2cccs2)CC1)NC1CCCCC1	2	2%	9	-0.9	-23%	8
O=C(COc1ccccc1)Nc1c2c(nn1-c1ccc(F)cc1)CS(=O)C2 (configuration not stated)	2	/	3	-4.7	-79%[inhibitor]	-13
COC(=O)C1CCCCN1C(=O)c1cc(COc2cccc3cccnc23)on1 (configuration not stated)	-3	-2%	-10	-1.8	-5%	7
CC1CCCN(C(=O)CNC(=O)c2sc3ccccc3c2Cl)C1 (configuration not stated)	8	-15%	8	-1.4	?	-52
CCC(C(=O)N1CCOCC1)n1nc(C)c2c(C)n(-c3ccccc3)nc2c1=O (configuration not stated)	/	2%	-3	2.2	2%	-4
CCOC(=O)Nc1ccc2c(c1)N(C(=O)OCCN(C)C)c1ccccc1CC2	0&6	14%&8%	0&8	-6.4&8.4	?	-9&-5
COc1ccc(NC(=O)CN2CCC(Cc3ccccc3)CC2)cc1S(=O)(=O)N1CCOCC1	11	-4%	-1	-2.8	14%	-38
O=C(COC(=O)CSc1ccc(F)cc1)NC1CCCCCC1	2	10%	11	-5.4	-71%[inhibitor]	-1
Cc1c(Cl)cccc1N=C1NC(=O)CS1	4	/	3	-2.5	-20%	-4
Cc1cc(/C=C2\SC(=O)N(C)C2=O)c(C)n1-c1cccc(C(=O)O)c1	-8	4%	-22	2.4	?	-5
COc1ccc(OC)c(NC(=O)Cc2c(C(=O)O)n(C)c3ccccc23)c1	-7	-8%	-19	-2.0	12%	3
Cc1ccn2c(NC(=O)C(C)(C)Oc3ccc(Cl)cc3)c(-c3cccs3)nc2c1	0	-1%	-1	-4.3	-46%[inhibitor]	-19
COc1ccc(C2CC(C(F)(F)F)n3nc(C(=O)N(C)Cc4cn(C)nc4C)c(Cl)c3N2)cc1 (configuration not stated)	-1	-4%	-1	0.2	6%	-10
CCOC(=O)c1c(C)n(C)c2ccc(OC(=O)c3ccc(N4C(=O)CCC4=O)cc3)cc12	12	-5%	-17	-0.9	-4%[15.4 µM]	-13
CCC(C)NC(=O)Cn1cnc2sc(C)c(S(=O)(=O)N3CCN(c4ccccc4OC)CC3)c2c1=O (configuration not stated)	-25	5%	-7	-3.1	4%	-4
CC(C)CCNC(=O)C1CC(c2ccccc2C(F)(F)F)=NO1 (configuration not stated)	12	4%	5	0.1	/	1
C/C(=N/NS(=O)(=O)c1ccc(Br)cc1)c1c[nH]c2ccccc12	-1	5%	2	-4.4	-56%[inhibitor]	-1
CC1CCN(C(=O)c2ccc(CSc3nc4ccncc4n3Cc3ccc(F)cc3)cc2)CC1	-6	6%	-3	1.5	25%	-4
C=CCCCCc1nc2ccccc2c(=O)n1N	10	3%	5	0.0	-5%	10

A stretch of the results above, as a working copy:
SMILES	CtBP-E1A blk	gsp antagonist	Six1-Eya2 blk	D2 agonist	gsp agonist	D2 PAM
CC(C)CCNC(=O)C1CC(c2ccccc2C(F)(F)F)=NO1 (configuration not stated)	12	4%	5	0.1	/	1
C/C(=N/NS(=O)(=O)c1ccc(Br)cc1)c1c[nH]c2ccccc12	-1	5%	2	-4.4	-56%[inhibitor]	-1
CC1CCN(C(=O)c2ccc(CSc3nc4ccncc4n3Cc3ccc(F)cc3)cc2)CC1	-6	6%	-3	1.5	25%	-4
C=CCCCCc1nc2ccccc2c(=O)n1N	10	3%	5	0.0	-5%	10

Next section:
SMILES	CtBP-E1A blk	gsp antagonist	Six1-Eya2 blk	D2 agonist	gsp agonist	D2 PAM
CCOCCCNC(=O)CNC(=S)N(Cc1ccccc1F)C1CCCCC1	-17	-4%	2	-1.3	-5%	-4
CC(C)=CCn1c2ccc(NC(=O)Nc3cccnc3)cc2c(=O)n1C	2	/	-4	?	/	-4
O=C(Nc1ccccc1F)c1ccc2c(c1)CCN2S(=O)(=O)c1ccccc1	1	-18%	-1	-6.5	23%	0
COCCCNc1ccn2nc(-c3ccccc3)cc2n1	-14	/	-25	1.8	/	-1
COCCNC(=O)c1onc(CSc2cccc(Cl)c2)c1C(=O)O	4	-1%	2	-1.0	/	0
CCOC(=O)c1c(-c2ccccc2)c2cc(OC)ccc2n1CCCN(C)C	/	11%	-3	-9.8	12%	-78
CN1CCC(=NOc2ccc([N+](=O)[O-])cc2)CC1	17	7%	0	0.2	-1%[15.4 µM]	-3
Cc1ccc(NC(=S)N2C3CCCC2CC(NC(=O)C2CC2)C3)cc1C (configuration not stated)	3	-2%	1	-3.7	0%	-8
Cc1cc(C)c(C#N)c(SCS(=O)Cc2ccc(Cl)cc2)n1 (configuration not stated)	7	-10%	-1	-0.2	7%	-16
COc1ccc(CCNCc2csc3nc4ccccc4n23)cc1OC	2	-13%	12	2.6	4%	-1
CN(CC(=O)Nc1cccc(F)c1)C(=O)c1cccc2ccccc12	20	4%	-1	-3.6	-8%	-11
Cc1ccccc1NCC(=O)N/N=C\c1ccc2c(c1)OCO2	-20	0%	-5	-2.5	-23%	-3
Cc1ccc(COCCN2CCN(S(=O)(=O)c3ccccc3)CCC2=O)cc1	2	6%	4	1.5	16%	-5
CNC(=S)N1N=C(c2ccc(C)cc2)CC1c1ccc(OC)c(OC)c1 (configuration not stated)	2	-14%	-2	-0.5	-1%[15.4 µM]	-6
c1n[nH]c(NCc2ccc3c(c2)OCO3)n1	3	12%	8	8.4	16%	-6
Cc1ccc(CNC(=O)Cn2c([N+](=O)[O-])cnc2C)cc1	5	-2%	3	0.1	-1%	3
CC(=O)Nc1ccc(S(=O)(=O)NCCC(=O)NC(C)c2cccs2)cc1 (configuration not stated)	1	13%	3	6.8	13%	-4
COc1ccc(/C=C/C(=O)O)cc1S(=O)(=O)N1CCCC1	0	-6%	-8	1.3	18%[15.4 µM]	0
Cn1c(C=O)c(C#Cc2ccccc2)c2ccccc21	109	-8%	102	-2.3	7%	-25
Cc1ccc(Nc2nc(Cl)nc(NC3CCCCC3)n2)cc1	4	3%	2	-2.9	-7%[15.4 µM]	-8
CCOc1ccc(S(=O)(=O)N2CC(=O)Nc3ccccc32)cc1C#N	8	10%	-5	-2.6	9%	-1
Cc1cc2oc(=O)cc(COC(=O)Cn3cnnn3)c2cc1C(C)C	0	9%	1	-1.5	-9%	-8
C[C@H]1CN([C@@H](C)CO)C(=O)CCCn2cc(nn2)CO[C@@H]1CN(C)C(=O)Cc1ccccc1	-2	/	13	2.2	-45%[inhibitor]	-11
CCN1CCN(S(=O)(=O)c2ccc(C)c([N+](=O)[O-])c2)CC1	-9	8%	3	-2.6	-7%	22
O=C(Oc1cccc2c(O)cccc12)c1ccccc1Cl	-4	1%	6	6.6	22%	5
CN(Cc1ccco1)C(=O)Cn1nc(-c2ccc(Cl)cc2)ccc1=O	/	1%	2	-3.1	1%	-15
Cc1cc(NC(=O)Nc2ccccc2Cl)no1	6	4%	-7	0.6	2%[15.4 µM]	-5
CCC(CC)NC(=O)CON=C1c2ccccc2-c2ccccc21	10	-7%	12	-3.4	13%	-12
CCN(Cc1ccccc1)C(=O)CSc1ccccc1C(=O)O	/	5%	-12	-5.3	-95%[inhibitor]	-6
O=c1cc(-c2ccc(Cl)c(Cl)c2)[nH][nH]1	1	-4%	-5	-4.8	13%	-32
O=C(Nc1nnc(SCc2ccccc2F)s1)c1ccco1	7	-6%	9	-1.9	2%	-3
Cc1ccc(-c2cc(C(=O)NCCc3ccc(S(N)(=O)=O)cc3)c3ccccc3n2)cc1	-16	-27%	3	-3.2	30%	1

Source: PubChem BioAssay

Rows were taken by chance (roughly 1.4% active in at least one column).
